# Assay outcomes: PubChem, National Center for Advancing Translational Sciences (NCATS)
# PINK1 modulator – A Quantitative High throughput Screen to Identify Chemical Modulators of PINK1 Expression; hit rate 0.2% among 410,000; PINK1 immunofluorescence, high-content cytometry, 24 h; AID 624263, 2012; Potency, µM (top dose mostly 76.6 µM), for inactives: at the highest dose activation (PINK1 increase), usual class: activators; active = well fitted activation curve with a large enough effect; inconclusive = small, poorly fitted or top-dose-only effect; inactive = flat fitted curve, though single readings scatter; cell line not stated here;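 note: potency is the fitted concentration of half-maximal effect; % of control where 0% means no effect; nearly all actives have a fitted effect of over 65% in size; a mitochondrial uncoupler was the plate control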
#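 A stable cell line was treated with compounds at 5 concentrations for 24 hours, with CCCP as control. PINK1 levels and mitochondrial localization were measured by immunofluorescence with mitochondrial, cell and nuclear markers after fixation, read by laser-scanning cytometry.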
# TRPV1 PAM – HTS Assay for Compounds that Act as Potentiators of the Vanilloid Receptor 1; hit rate 0.02% among 320,000; AID 540277, 2011; potentiation, % at 8.33 µM; TRPV1-expressing cells, Fluo-8 calcium influx, capsaicin EC20 potentiation; host cell line not named in the record; control for the full effect not named in the record; Transient receptor potential cation channel subfamily V member 1 (Homo sapiens), Q8NER1; active means potentiation above 80%; inconclusive means 30% to 80%; inactive means below 30%; note: 0% is about no effect
# Target sequence (Q8NER1 whole entry, looked up): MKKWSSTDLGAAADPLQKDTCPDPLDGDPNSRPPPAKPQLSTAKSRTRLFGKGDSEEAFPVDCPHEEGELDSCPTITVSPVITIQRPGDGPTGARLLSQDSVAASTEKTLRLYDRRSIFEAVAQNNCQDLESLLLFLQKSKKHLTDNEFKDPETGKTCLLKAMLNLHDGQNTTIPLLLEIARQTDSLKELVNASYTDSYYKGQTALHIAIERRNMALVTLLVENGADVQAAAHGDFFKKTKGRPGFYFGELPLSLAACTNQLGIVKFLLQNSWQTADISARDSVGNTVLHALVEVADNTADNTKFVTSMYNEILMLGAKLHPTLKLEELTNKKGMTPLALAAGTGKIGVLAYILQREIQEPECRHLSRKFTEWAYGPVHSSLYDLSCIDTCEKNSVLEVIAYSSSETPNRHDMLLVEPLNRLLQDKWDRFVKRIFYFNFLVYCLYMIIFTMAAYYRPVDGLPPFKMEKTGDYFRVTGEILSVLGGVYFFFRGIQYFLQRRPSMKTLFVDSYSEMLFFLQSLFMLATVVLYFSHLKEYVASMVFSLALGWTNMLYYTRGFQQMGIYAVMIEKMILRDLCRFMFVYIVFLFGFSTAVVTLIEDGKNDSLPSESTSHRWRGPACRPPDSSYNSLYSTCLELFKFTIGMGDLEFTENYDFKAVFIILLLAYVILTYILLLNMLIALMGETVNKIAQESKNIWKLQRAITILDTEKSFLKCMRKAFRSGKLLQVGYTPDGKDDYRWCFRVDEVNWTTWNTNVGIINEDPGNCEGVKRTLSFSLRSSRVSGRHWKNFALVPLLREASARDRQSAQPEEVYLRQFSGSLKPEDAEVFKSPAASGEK
#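 Fluo-8 calcium influx in TRPV1-expressing cells, kinetic read (ex 480/em 520 nm). Compound added and read 3 min for agonist activity, followed by capsaicin at EC20 final and 2 min further read for enhancement.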
# Sfp inh – qHTS Assay for Inhibitors of Bacillus subtilis Sfp phosphopantetheinyl transferase (PPTase); 4'-phosphopantetheinyl transferase ffp (Bacillus subtilis), Q9F4F7; Biochemical Sfp PPTase activity, qHTS; Potency, µM, for the others: max response, negative = inhibition, most hits filed as inhibitors; hit rate 3.5% among 310,000; active = well fitted inhibition curve with a large enough effect; inconclusive = small, poorly fitted or top-dose-only effect, or another doubt; inactive = no such curve, though single readings can be large or run the other way;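 note: the enzyme is Sfp with the accession as filed and its product quenches rhodamine fluorescence; potency is the fitted concentration of half-maximal effect; 0% = enzyme reaction without inhibitor and -100% = no enzyme wells; top concentration of the series not given in the record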
#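 With Hepes-Na pH 7.6 buffer containing 10 mM MgCl2, Sfp (15 nM) modified BHQ-2-YbbR (12.5 uM) using rhodamine-CoA (5 uM). Two reads 30 minutes apart at 525/598 nm yielded each well's rate.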
# Starred values were filed as active, the others as inactive; ? = inconclusive; / = no result given; [ ] = another dose, or the depositor's remark. An excerpt (hit frequency here may not be typical).
SMILES,PINK1 modulator,TRPV1 PAM,Sfp inh
COc1cccc(Cn2c(=O)cnc3cnc(N(C)C)nc32)c1,-1.3%,/,31%[activator]
O=C(c1cccc(F)c1)N1CCC2(CC1)CCN(c1cccc(-c3ccccc3)c1)CC2,0.9%,/,-8%
COc1ccc(C(=O)N2CCC3(CC2)CCN(c2ccccc2)CC3)cc1,-0.2%,/,12%
CCOC(=O)CCCCCCCCCCCCC1C=CCC1 (stereo unspecified),-0.5%,/,15%
N#CCCn1c(=O)c(-c2ccc(Cl)cc2)nc2cnc(OCc3ccccc3)nc21,5.9%,/,-3%
COCCNc1nc(-c2ccc(N(C)C)cc2)nc2ccccc12,0.3%,/,?
COc1ccccc1-c1cncnc1NCc1cccnc1,-1.1%,/,?
Cc1cnc(CNc2ncnc3ccc(-c4ccc(N(C)C)cc4)cc23)cn1,0.4%,/,?
CN(Cc1ccco1)c1ncncc1-c1ccoc1,1.4%,/,79µM*
Cc1cnc(CNc2ccnc(-c3c(C)noc3C)n2)cn1,2.1%,/,20%
O=C(c1cccc(F)c1)N1CCC2(CCN(Cc3cc(C(F)(F)F)cc(C(F)(F)F)c3)CC2)CC1,-0.7%,/,22%
NC(=O)c1ccccc1-c1nc(-n2ccnc2)c2ccccc2n1,-0.2%,/,6%
N#Cc1cccc(NC(=O)N2CC[C@@]3(CCCN(C(=O)c4csnn4)C3)C2)c1,-0.6%,/,-2%
COc1ccc(CNc2ncncc2-c2ccc3c(c2)OCO3)c(OC)c1,-0.7%,/,?
COCCn1c(=O)c(-c2cc(F)cc(F)c2)nc2cnc(Oc3ccc(OC)cc3)nc21,0.2%,/,-3%
O=C(c1ccncc1)N1CCC[C@@]2(CCN(C(c3ccccc3)c3ccccc3)C2)C1,0.5%,/,2%
COc1ccc(CNc2ccnc(-c3ccc(C(=O)N(C)C)cc3)n2)c(OC)c1,0.0%,/,9%
COc1ccc(-c2cc(=O)c3c(O)cc(O)c(-c4cc(-c5cc(=O)c6c(O)cc(O)cc6o5)ccc4OC)c3o2)cc1,-1.3%,/,7%
COCC(=O)N1CCC2(CC1)CN(C(=O)Nc1cccc(C#N)c1)C2,-0.1%,/,10%
CCCCCCCCCCCCCCC(C(=O)O)C(O)(CC(=O)OC)C(=O)O (stereo unspecified),-1.3%,/,?
COCC(=O)N1CCC[C@@]2(CCN(C(=O)Nc3ccc(OC)cc3)C2)C1,-0.2%,/,20%
Cn1c(=O)c(-c2ccccc2)nc2cnc(Oc3ccccc3)nc21,-0.6%,/,-7%
O=c1c(CCc2ccccc2)nc2cnc(N3CCOCC3)nc2n1Cc1ccc(F)cc1,-0.1%,/,0%
COc1cccc(-c2nccc(NCc3ccccc3)n2)c1,0.0%,/,-20%
COc1ccccc1CCn1c(=O)c(-c2cc(F)cc(F)c2)nc2cncnc21,8.4%,/,-18%

# Only Sfp inh and TRPV1 PAM, for some of the entries so far:
SMILES | Sfp inh | TRPV1 PAM
COc1ccc(C(=O)N2CCC3(CC2)CCN(c2ccccc2)CC3)cc1 | 12% | /
CCOC(=O)CCCCCCCCCCCCC1C=CCC1 (stereo unspecified) | 15% | /
N#CCCn1c(=O)c(-c2ccc(Cl)cc2)nc2cnc(OCc3ccccc3)nc21 | -3% | /
COCCNc1nc(-c2ccc(N(C)C)cc2)nc2ccccc12 | ? | /

# Entries of single compounds as entered above.
# COCC(=O)N1CCC2(CC1)CN(C(=O)Nc1cccc(C#N)c1)C2 reads PINK1 modulator = -0.1%; TRPV1 PAM = /; Sfp inh = 10%
# COc1ccc(CNc2ncncc2-c2ccc3c(c2)OCO3)c(OC)c1 reads PINK1 modulator = -0.7%; TRPV1 PAM = /; Sfp inh = ?
# COc1cccc(Cn2c(=O)cnc3cnc(N(C)C)nc32)c1 reads PINK1 modulator = -1.3%; TRPV1 PAM = /; Sfp inh = 31%[activator]

# Going on with the list:
SMILES,PINK1 modulator,TRPV1 PAM,Sfp inh
OB(O)c1ccc(Cl)s1,0.7%,/,31%[activator]
O=C(Nc1ccccc1)N1CC[C@@]2(CCCN(C(=O)c3cnccn3)C2)C1,-1.0%,/,-2%
O=C(Nc1ccccc1)N1CC2(CCN(C(=O)c3cc(C(F)(F)F)cc(C(F)(F)F)c3)CC2)C1,-0.1%,/,1%
COc1ccc(CNc2ccnc(-c3c(C)noc3C)n2)c(OC)c1,1.2%,/,?
CN(C)C(=O)c1ccc(-c2cc(Nc3ccccc3)ncn2)cc1,1.9%,/,9%
Cn1cccc1C(=O)N1CCC[C@@]2(CCN(Cc3ccc(C#N)cc3)C2)C1,-0.4%,/,26%
Cc1cc(O)c(C=O)c(O)c1C(=O)O,-0.5%,/,-7%
COc1ccc(NC(=O)N2CC[C@@]3(CCCN(C(=O)c4cccc(F)c4)C3)C2)cc1,-0.2%,/,18%
O=C(c1cc(C(F)(F)F)cc(C(F)(F)F)c1)N1CCC[C@@]2(CCN(c3ncccn3)C2)C1,-0.7%,/,20%
O=C(c1ccncc1)N1CCC2(CCCN(Cc3ccncc3)C2)CC1,-0.7%,/,-7%
C[C@@]12CCC(OC(=O)c3ccccc3)CC1CCc1ccccc12 (stereo partly specified),2.8%,/,2%
Cn1c(=O)c(-c2cccc(C#N)c2)nc2cnc(Oc3ccccc3)nc21,5.3%,/,-4%
CCNc1ncc2nc(-c3ccc(OC)cc3)c(=O)n(CCC#N)c2n1,6.6%,/,-2%
CCNc1ncc2nc(C)c(=O)n(C3CC3)c2n1,-0.3%,/,20%
CN(C)c1ccc(-c2cncnc2Nc2ccccc2)cc1,-0.4%,/,1%
COC(=O)N1CCC[C@@]2(CCN(C(=O)NC(C)C)C2)C1,1.0%,/,29%
O=C(c1ccco1)N1CCC2(CC1)CCN(C(c1ccccc1)c1ccccc1)CC2,0.5%,/,1%
O=C(c1cccc(F)c1)N1CCC2(CCCN(c3cccc(-c4ccccc4)c3)C2)CC1,1.7%,/,0%
COc1ccc(NC(=O)N2CC3(CCN(S(C)(=O)=O)CC3)C2)cc1,-0.4%,/,-1%
Cn1cc(-c2nc3cnc(N4CCNCC4)nc3n(Cc3ccc(F)cc3)c2=O)c2ccccc21,-1.3%,/,20µM*
FC(F)(F)c1ccccc1-c1ccc2ncnc(NC3CCNCC3)c2c1,1.2%,/,-3%
Cn1cccc1C(=O)N1CCC[C@@]2(CCN(Cc3nccs3)C2)C1,-1.0%,/,19%
C[C@@]12CCC(O)C[C@H]1CCc1ccccc12 (stereo partly specified),-0.6%,/,-4%
CCNc1ncc2nc(-c3ccc(F)cc3)c(=O)n(Cc3ccc(F)cc3)c2n1,-0.2%,/,10%
N#Cc1cccc(NC(=O)N2CCCC3(CCN(C(=O)c4cnccn4)CC3)C2)c1,0.8%,/,8%

# Later entries
SMILES,PINK1 modulator,TRPV1 PAM,Sfp inh
c1ccc(CNc2ccnc(-c3ccc4c(c3)OCO4)n2)cc1,1.2%,/,-13%
N#CCCn1c(=O)c(-c2cccc(C#N)c2)nc2cnc(Oc3ccccc3)nc21,-0.4%,/,18%
COCCNc1ccnc(-c2ccccc2CN(C)C)n1,2.2%,/,6%
COc1ccccc1-c1cc(=O)c2cccc(OC)c2o1,-1.0%,/,3%
O=C1C(c2[nH]c3ccc(S(=O)(=O)O)cc3c2O)=Nc2ccc(S(=O)(=O)O)cc21,1.6%,/,22µM*
O=c1c(-c2ccc(F)c(F)c2)nc2cncnc2n1C1CC1,-1.3%,/,11%
c1ccc(CNc2ncncc2-c2cccnc2)cc1,-0.2%,/,-20%
Cc1ccccc1-c1nc(NC2CC2)c2ccccc2n1,1.7%,/,5%
COCCn1c(=O)c(-c2cc(F)cc(F)c2)nc2cnc(N3CCNCC3)nc21,-0.7%,/,17%
O=C(c1ccco1)N1CCC2(CC1)CCN(c1cccc(-c3ccccc3)c1)CC2,0.2%,/,-21%
CNc1nc(-c2ccoc2)nc2ccccc12,0.0%,/,9%
Cc1ccccc1-c1ccc2ncnc(NCc3cccnc3)c2c1,2.4%,/,-18%
Cc1cccc(CNc2ncncc2-c2ccccc2Cl)c1,0.1%,/,9%
Cc1noc(C)c1-c1nccc(N2CCOCC2)n1,-0.3%,/,-14%
COc1ccc2[nH]cc(CCNc3ccnc(-c4ccccc4C(F)(F)F)n3)c2c1,-0.4%,/,10%
N#Cc1cccc(-c2nc3cnc(N4CCOCC4)nc3n(C3CC3)c2=O)c1,11%,/,14%
COc1ccc(-c2nc3cnc(Oc4cccc(Cl)c4)nc3n(CCC#N)c2=O)cc1,8.6%,/,8%
CN1CCN(c2ncc3nc(-c4ccccc4)c(=O)n(Cc4cccs4)c3n2)CC1,1.8%,/,5%
O=C(c1cccc(F)c1)N1CCC2(CCCN(c3ccc(-c4ccccc4)cc3)C2)CC1,0.5%,/,0%
COc1cccc(-c2nc(N3CCNCC3)c3ccccc3n2)c1,-1.3%,/,0%
COCCNc1ccnc(-c2ccccc2C)n1,1.4%,/,?
O=S(=O)(c1ccccc1)N1CCC2(CCCN(Cc3nccs3)C2)CC1,-1.1%,/,8%
O=C(c1csnn1)N1CCC[C@@]2(CCN(c3ncccn3)C2)C1,-1.2%,/,?
[N-]=[N+]=Nc1nc2c(N)ncnc2n1C1OC(CO)C(O)C1O (stereo unspecified),-1.3%,/,?
O=C(c1cccc(F)c1)N1CCC[C@@]2(CCN(c3ccccn3)C2)C1,-0.8%,/,9%

# Going on with the list:
SMILES,PINK1 modulator,TRPV1 PAM,Sfp inh
COc1ccc(C(=O)N2CCC[C@@]3(CCN(Cc4ccccc4)C3)C2)cc1,-0.9%,/,16%
CC(C)CN1CCC2(CC1)CCN(C(=O)c1cc(C(F)(F)F)cc(C(F)(F)F)c1)CC2,-0.5%,/,35%[activator]
CCNc1ncc2nc(-c3cccs3)c(=O)n(CCc3ccccc3)c2n1,?,/,2%
C[C@@H]1CCC2[C@](C)(CO)C(O)CC[C@@]2(C)[C@@]12CC[C@](CO)(CCO)O2 (stereo partly specified),-0.6%,/,26%
CN1CCN(c2ncc3ncc(=O)n(Cc4ccc(F)cc4)c3n2)CC1,-0.2%,/,4%
Cc1ccc(O)c(C(CCN(C(C)C)C(C)C)c2ccccc2)c1 (stereo unspecified),-0.7%,/,9%
CC1=CC2C(CC1=O)C(C)=CCC2C(C)C (stereo unspecified),0.0%,/,-6%
CNc1ccccc1C(=O)N1CCc2c([nH]c3ccccc23)C1=O,-1.0%,/,13%
CC(C)CN1CCC2(CC1)CCN(C(=O)c1cnccn1)CC2,0.4%,/,20%
O=C(c1cc(C(F)(F)F)cc(C(F)(F)F)c1)N1CCC2(CCCN(Cc3ccccc3)C2)CC1,1.5%,/,12%
O=c1c(-c2ccccc2)nc2cncnc2n1Cc1ccccc1Cl,1.2%,/,0%
COc1ccc(Oc2ncc3nc(-c4cn(C)c5ccccc45)c(=O)n(CCC#N)c3n2)cc1,0.4%,/,23%
CN(C)c1ccc(-c2cncnc2NCCN2CCOCC2)cc1,-0.1%,/,79µM*
COc1ccc(Oc2ncc3nc(-c4ccc(OC)cc4)c(=O)n(Cc4cccs4)c3n2)cc1,2.1%,/,31%[activator]
COc1cccc(NS(=O)(=O)c2ccc3[nH]cc(C(=O)NCCc4ccc(C)cc4)c(=O)c3c2)c1,6.9%,5,/
O=C(Nc1nc2c(F)cc(F)cc2s1)c1ccc2c(c1)OCCO2,0.4%,1,/
CCCCNC(=O)CSc1nnc(C)c2c(C)n(-c3ccccc3)nc12,6.4%,-16,/
Cc1cccc(NC(=O)CSc2nc(-c3ccco3)nc3cc(=O)[nH]n23)c1,0.4%,7,/
COc1ccccc1NC(=O)CCn1cnc2ccccc2c1=O,0.6%,11,/
Cc1ccc2nc(NC(=O)CSc3[nH]c(=O)ncc3C)sc2c1,6.8%,1,/
CCc1ccc(C(=O)c2cn(CC(=O)Nc3cccc(OC)c3)c3ccc(OC)cc3c2=O)cc1,?,-12,/
COC(=O)c1cccc(-c2noc(-c3ccccc3F)n2)c1,9.2%,1,/
O=C(O)c1ccc(C(=O)Nc2cccc3cccnc23)cc1,-1.0%,-3,/
CCCCCC(=O)N1c2ccccc2C(C)(c2ccccc2)CC1(C)C (stereo unspecified),1.7%,-17,/
O=C(Nc1cccc2cccnc12)c1cccs1,-1.0%,17,/
CCC(=O)N1CCc2cc(CNS(=O)(=O)c3cc(OC)ccc3OC)ccc21,1.8%,-5,/
CS(=O)(=O)c1ncc(Cl)c(C(=O)N2CCN(c3cccc(Cl)c3)CC2)n1,-0.8%,4,/
O=C(CI)Nc1cccc2cccnc12,-1.6%,-11,/
Oc1ccc(Br)cc1C1C=C(c2ccc3c(c2)OCO3)NC(c2ccc(F)c(Br)c2)N1 (stereo unspecified),-0.7%,15,/
